supercomplex: modulators of mitochondrial supercomplex assembly, cell-based, luminescence, Hoechst nuclei count (AID 1645838). Cells, luminescence/Hoechst cell count ratio, supercomplex reporter; active compounds read high. z-score at 11 µM unless noted. hit rate 5% among 2,000;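 active = mean z-score of two plates above 1.96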;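 also: control cybrid cells; higher means more mitochondrial supercomplex formation; U2OS-based cells read after two days; 0 = mean of sample wells on the plate; doses worked out from stocks diluted about 900-fold with the highest of each compound shown; many of its hits are not listed in these tables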
supercomplex cell count: further read-out of supercomplex, marked with its call; cell count; measured here: cell number, Hoechst nuclei count;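 nuclei per well as mean of two plates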
Numbers without * were called inactive; i = inactive; / = not tested or not shown. These rows are one share of the data; the hit share may differ from the screen's.

Screens in order: supercomplex, supercomplex cell count
(1) COc1ccccc1N1CCN(c2ncnc3c2cnn3-c2ccccc2)CC1
    -0.82, 2970
(2) CC(C)(C)Nc1nc2cc(Cl)c(Cl)cc2nc1S(C)(=O)=O
    i, /
(3) CNC(C)C(=O)NC(C(=O)N1CCCC1c1nc(C(=O)c2ccc(F)cc2)cs1)C1CCCCC1 (stereo not given)
    1.2, 6608
(4) CCCCNc1ncc(-c2ccc(CN3CCOCC3)cn2)c(NC2CCC(O)CC2)n1 (stereo not given)
    i, /
(5) C=CC(=O)N1CCc2ccc(-n3c(=O)ccc4cnc5ccc(-c6cnn(C)c6)cc5c43)cc21
    i, /
(6) Nc1ccc2ncnc(NCCc3ccc(Oc4ccccc4)cc3)c2c1
    -0.7, 4966
(7) CC(C)(c1ccc(O)cc1)c1ccc(O)cc1
    -0.74, 5563
(8) O=C1Cc2cc(CCN3CCN(c4nsc5ccccc45)CC3)c(Cl)cc2N1
    -0.052, 5850
(9) O=C(CCN1CCN(C(=O)OCc2cc(Cl)cc(Cl)c2)CC1)c1ccc2[nH]c(=O)oc2c1
    -0.41, 6795
(10) Cc1nc(N(C)C(=O)Cc2ccc(-c3ccccn3)cc2)sc1S(N)(=O)=O
    -0.28, 5196
(11) Cc1nc2n(c(=O)c1CCN1CCC(c3noc4cc(F)ccc34)CC1)CCCC2O (stereo not given)
    -0.29, 6278
(12) COc1ccc(-c2oc3cc(O)cc(O)c3c(=O)c2O)cc1
    -1.4, 4987
(13) CCCNS(=O)(=O)Nc1ncnc(OCCOc2ncc(Br)cn2)c1-c1ccc(Br)cc1
    -0.41, 6262
(14) CCC1OC(=O)C(C)C(OC2C[C@@](C)(OC)C(O)C(C)O2)C(C)C(OC2OC(C)CC(N(C)C)C2O)[C@](C)(O)CC(C)C(=O)C(C)C(O)[C@]1(C)O (stereo not given in full)
    -0.19, 4804
(15) CCCCCC(O)CCC1C(O)C[C@H]2Cc3c(cccc3OCC(=O)O)C[C@@H]12 (stereo not given in full)
    -0.83, 6043
(16) COC1C[C@@H]2CCC(C)[C@@](O)(O2)C(=O)C(=O)N2CCCC[C@@H]2C(=O)O[C@@H](C(C)CC2CCC(n3cnnn3)C(OC)C2)CC(=O)C(C)C=C(C)C(O)C(OC)C(=O)C(C)CC(C)C=CC=CC=C1C (stereo not given in full)
    1.1, 3594
(17) CC(C)N(CCCNC(=O)Nc1ccc(C(C)(C)C)cc1)CC1OC(n2ccc3c(N)ncnc32)C(O)C1O (stereo not given)
    -0.13, 6184
(18) CCCCCCCC(=O)c1c(O)cc(O)cc1CC(=O)OCC
    -0.21, 6208
(19) CSc1sc(-c2ccn(C(C)=O)n2)c2c1C(=O)CC(C)(C)C2
    1, 3758
(20) CCN1CCN(c2cc(-c3ccc(F)cc3)c3c(n2)CCCCCC3)CC1
    -0.29, 6074
(21) CCCCCCNC(=O)Nc1ccc(S(=O)(=O)Nc2ccc(CCNCC(O)COc3ccc(O)cc3)cc2)cc1 (stereo not given)
    0.11, 4952
(22) CCN(Cc1ccncc1)C(=O)C(CO)c1ccccc1 (stereo not given)
    -0.064, 6162
(23) Cc1cc(CCCC(CC(=O)NO)C(=O)NC(C(=O)NC(C)c2ccccc2)C(C)(C)C)ccc1-c1ccccc1 (stereo not given)
    -0.067, 4840
(24) O=Nc1c(-c2c(O)[nH]c3cc(Br)ccc23)[nH]c2ccccc12
    i, /
(25) Cc1nc(Nc2ncc(C(=O)Nc3c(C)cccc3Cl)s2)cc(N2CCN(CCO)CC2)n1
    4*, 1698*
(26) Cc1cnc(Nc2ccc(OCCN3CCCC3)cc2)nc1Nc1cccc(S(=O)(=O)NC(C)(C)C)c1
    i, /
(27) COc1ccc(C(=O)Nc2sc(Nc3ccccc3)nc2C(N)=O)cc1
    1.1, 4296
(28) CCCCc1ccc(N=CNO)c(C)c1
    -0.72, 5342
(29) COc1ccc(C(=O)CC2(O)C(=O)Nc3c(Cl)ccc(Cl)c32)cc1 (stereo not given)
    i, /
(30) CC(=O)OC1CC[C@@]2(C)C(=CCC3C2CC[C@]2(C)C(c4cccnc4)=CCC32)C1 (stereo not given in full)
    -0.42, 6676
(31) O=c1ccc2c(OCCCCOc3ccccc3)c3ccoc3cc2o1
    0.0048, 5911
(32) COC(=O)C1CC2=CC(=O)CC[C@]2(C)[C@@]23OC2C[C@@]2(C)[C@@H](CC[C@@]24CCC(=O)O4)[C@H]13 (stereo not given in full)
    -0.66, 5782
(33) Cc1ccc(NC(=O)c2ccc(CN3CCC(N(C)C)C3)c(C(F)(F)F)c2)cc1Nc1nccc(-c2cncnc2)n1 (stereo not given)
    4.5*, 2487*
(34) O=C1NC(=NCc2cccs2)SC1=Cc1ccc2ncccc2c1
    i, /
(35) O=c1c(O)c(-c2ccccc2)oc2ccccc12
    -0.16, 7143
(36) NC(CC(=O)N1CCn2c(nnc2C(F)(F)F)C1)Cc1cc(F)c(F)cc1F (stereo not given)
    -0.37, 5968
(37) COc1cc(C(=O)NS(=O)(=O)c2ccccc2C)ccc1Cc1cn(C)c2ccc(NC(=O)OC3CCCC3)cc12
    0.032, 4990
(38) NC(CS)C(=O)O (stereo not given)
    -0.032, 6971
(39) CC(C)(C)c1ccc(S(=O)(=O)NCc2ccc(C(=O)Nc3cccnc3)cc2)cc1
    0.022, 1686
(40) O=C(Nc1cc(Cl)cc2c1[nH]c1cnccc12)c1cccnc1
    -0.15, 5886
(41) O=C1CC2(CCCC2)CC(=O)N1CCNCC1COc2ccccc2O1 (stereo not given)
    0.074, 5802
(42) C=CC(=O)Nc1ccc(CN(C(=O)Nc2c(Cl)c(OC)cc(OC)c2Cl)c2cc(Nc3ccc(N4CCN(C)CC4)cc3)ncn2)cc1
    -0.26, 4559
(43) COc1ccc2nc3ccc(OC)cc3c(SCCCN)c2c1
    1.5, 3560
(44) CN(C)CCOc1ccc(-c2nc(-c3ccc4c(c3)CCC4=NO)c(-c3ccncc3)[nH]2)cc1
    i, /
(45) CC1CCN(CCC2CCCN2S(=O)(=O)c2cccc(O)c2)CC1 (stereo not given)
    -0.24, 4500
(46) Nc1ccccc1NC(=O)c1ccc(CNC(=O)OCc2cccnc2)cc1
    14*, 1733*
(47) CN1CCN(CCC=C2c3ccccc3Sc3ccc(S(=O)(=O)N(C)C)cc32)CC1
    1.2, 3806
(48) NCCCCNS(=O)(=O)c1ccc2c(Cl)cccc2c1
    1.1, 4974
(49) O=C(Nc1cccc2cccnc12)c1ccc(N2C(=O)[C@H]3[C@H](C2=O)[C@H]2C=C[C@@H]3C2)cc1
    -0.73, 5928
(50) Cc1cccc(Oc2cnc(=O)[nH]c2)c1
    0.16, 4880

(continued)
Screens in order: supercomplex, supercomplex cell count
(51) O=C(Nc1cccc(Br)c1)c1cccc(S(=O)(=O)N2CCCCCC2)c1
    -0.035, 5890
(52) C#Cc1cccc(Nc2ncnc3cc(OCCOC)c(OCCOC)cc23)c1
    2*, 3821*
(53) COc1cc(C(=O)NCC2(N(C)C)CCCC2)cc(OC)c1OCc1ccccc1
    1.1, 6294
(54) O=C(O)C1CCCN(CCC=C(c2ccccc2)c2ccccc2)C1 (stereo not given)
    0.32, 6410
(55) NC(C(=O)O)c1ccc(P(=O)(O)O)cc1 (stereo not given)
    0.19, 7127
(56) CC(C)C1C(=O)NC(CCCN=C(N)N)C(=O)NCC(=O)NC(CC(=O)O)C(=O)NC(Cc2ccccc2)C(=O)N1C (stereo not given)
    5.2*, 1776*
(57) COC(=O)C1=C(C)NC(C)=C(C(=O)OC)C1c1ccccc1[N+](=O)[O-]
    -0.22, 4378
(58) CN(c1ncccc1CNc1nc(Nc2ccc3c(c2)CC(=O)N3)ncc1C(F)(F)F)S(C)(=O)=O
    i, /
(59) Cc1c(C(=O)NN2CCCCC2)nn(-c2ccc(Cl)cc2Cl)c1-c1ccc(Cl)cc1
    -0.89, 5375
(60) COC(=O)C1C(O)CCC2CN3CCc4c([nH]c5ccccc45)C3CC21 (stereo not given)
    -0.35, 5056
(61) COc1cc(C=C(C#N)C(=O)Nc2nnc(C(F)(F)F)s2)ccc1OCc1ccc(C(F)(F)F)cc1C(F)(F)F
    -0.61, 7259
(62) Nc1ncnc2c1c(COc1cccc(Cl)c1)nn2C1CCOCC1
    -0.065, 5808
(63) O=C(Nc1nnc(-c2ccco2)o1)c1cc(-c2ccccc2)nc2ccccc12
    2.2*, 4922*
(64) C[C@@]1(C(=O)Nc2ccc(F)nc2)CCCN1c1nc(Nc2cc(C3CC3)[nH]n2)c2cccn2n1
    i, /
(65) COc1cc(OC)c(NC(=O)Nc2cc(C)on2)cc1Cl
    -0.57, 5990
(66) CCS(=O)(=O)N1CC(CC#N)(n2cc(-c3ncnc4[nH]ccc34)cn2)C1
    -0.0084, 6086
(67) Cc1cc(N2CCOCC2)ccc1Nc1nc(NC2CCCCC2)c2[nH]cnc2n1
    3.7*, 2129*
(68) COc1ccc(CC(C)(C)NCC(O)c2cc(O)cc3c2OCC(=O)N3)cc1 (stereo not given)
    1.3, 5230
(69) CC1COCCN1c1cc(C2(S(C)(=O)=O)CC2)nc(-c2cccc3[nH]ccc23)n1 (stereo not given)
    i, /
(70) CC(NC(=O)c1cc(C(=O)NC(Cc2ccccc2)C(O)CNC2CC2)cc(N(C)S(C)(=O)=O)c1)c1ccccc1 (stereo not given)
    0.037, 6523

Four compounds already listed, arranged by the value under supercomplex cell count, highest first:
| entry | SMILES | supercomplex cell count |
| --- | --- | --- |
| 45 | CC1CCN(CCC2CCCN2S(=O)(=O)c2cccc(O)c2)CC1 (stereo not given) | 4500 |
| 52 | C#Cc1cccc(Nc2ncnc3cc(OCCOC)c(OCCOC)cc23)c1 | 3821* |
| 19 | CSc1sc(-c2ccn(C(C)=O)n2)c2c1C(=O)CC(C)(C)C2 | 3758 |
| 39 | CC(C)(C)c1ccc(S(=O)(=O)NCc2ccc(C(=O)Nc3cccnc3)cc2)cc1 | 1686 |

Later entries
Screens in order: supercomplex, supercomplex cell count
(71) Fc1ccc(CNc2ncnc3ccc(F)cc23)cc1
    -0.76, 4331
(72) N#Cc1cccc(C#N)c1-c1nc2c3ccccc3c3cc(Cl)ccc3c2[nH]1
    0.52, 6120
(73) Nc1nc2c(cnn2CCc2ccccc2)c2nc(-c3ccco3)nn12
    -0.19, 5835
(74) CC1C(=O)O[C@@H]2CC34C5CC(C(C)(C)C)C36C(OC(=O)C6O)O[C@@]4(C(=O)O5)[C@@]12O (stereo not given in full)
    -0.72, 5059
(75) Cc1c(Cn2c(C)nc3c(C(=O)O)cc(N4CCOCC4)cc32)cccc1C(F)(F)F
    0.14, 4512
(76) CCc1oc2ccccc2c1C(=O)c1cc(Br)c(O)c(Br)c1
    -0.091, 4703
(77) CCCCC(NC(=O)C(Cc1cn(C(=O)OC)c2ccccc12)NC(=O)C(CC(C)(C)C)NC(=O)N1C(C)CCCC1C)C(=O)O (stereo not given)
    -0.12, 5427
(78) CCC1C(=O)N(C)c2cnc(Nc3ccc(C(=O)NC4CCN(C)CC4)cc3OC)nc2N1C1CCCC1 (stereo not given)
    i, /
(79) CC(C)c1onc(-c2c(Cl)cccc2Cl)c1COc1ccc(C=Cc2cccc(C(=O)O)c2)c(Cl)c1
    -1, 5584
(80) Nc1[nH]nc2nnc(-c3c(-c4ccccc4)nn4ccccc34)cc12
    -0.067, 5015
(81) COc1cc2nc(N3CCN(C(=O)C4CCCO4)CC3)nc(N)c2cc1OC (stereo not given)
    0.6, 6464
(82) CC(=O)c1cccc(NC(=O)CN2CCc3cc4c(cc3C2)OCCCO4)c1
    0.059, 4739
(83) CC1CCN(C(=O)CC#N)CC1N(C)c1ncnc2[nH]ccc12 (stereo not given)
    -0.83, 7101
(84) CC1=C(C(=O)Nc2cc3cn[nH]c3cc2F)C(c2ccc(C(F)(F)F)cc2)CC(=O)N1 (stereo not given)
    -0.21, 5740
(85) C=CC(=O)Nc1cccc(Oc2nc(Nc3ccc(N4CCN(C)CC4)cc3OC)ncc2Cl)c1
    -0.53, 4724
(86) O=c1sn(-c2cccc3ccccc23)c(=O)n1Cc1ccccc1
    0.64, 2205
(87) C#Cc1cccc(Nc2ncnc3cc4c(cc23)OCCOCCOCCO4)c1
    -0.22, 5976
(88) CCNC(=O)c1cc2c(-c3cc(OCCN4CCCC4)c(Cl)cc3Cl)nc(N)nc2s1
    i, /
(89) CC(O)C(CO)NC(=O)C1CSSCC(NC(=O)C(N)Cc2ccccc2)C(=O)NC(Cc2ccccc2)C(=O)NC(Cc2c[nH]c3ccccc23)C(=O)NC(CCCCN)C(=O)NC(C(C)O)C(=O)N1 (stereo not given)
    -0.48, 5615
(90) CC(NC(=O)C(O)c1cc(F)cc(F)c1)C(=O)NC1C(=O)N(C)c2ccccc2-c2ccccc21 (stereo not given)
    -0.29, 5548
(91) N#CCNC(=O)c1ccc(-c2ccnc(Nc3ccc(N4CCOCC4)cc3)n2)cc1
    i, /
(92) CC(O)C(O)C1CNc2nc(N)[nH]c(=O)c2N1 (stereo not given)
    i, /
(93) CC(C=CC(C)C(C)(C)O)[C@@H]1CC[C@@H]2C(=CC=C3CC(O)CC(O)C3)CCC[C@@]21C (stereo not given in full)
    -1.5, 5722
(94) O=C(NCCO)c1cccc(-c2cc(Nc3ccc(OC(F)(F)F)cc3)ncn2)c1
    -0.23, 4612
(95) Nc1cccc(OCc2ccccc2)c1
    0.14, 6436
(96) CC(C)C(N)C(=O)NC(Cc1ccccc1)C(=O)O (stereo not given)
    -0.16, 5031
(97) Cn1c(SCC(=O)N2CCCC2C(=O)Nc2ccccc2-c2ccccc2)nc2ccccc21 (stereo not given)
    -0.28, 5710
(98) CSCCC(NC=O)C(=O)NC(CC(C)C)C(=O)NC(Cc1ccccc1)C(=O)O (stereo not given)
    -1.1, 5887
(99) O=c1ccc2ccc(O)cc2o1
    i, /
(100) CC(Cc1cc2c(c(C(N)=O)c1)N(CCCO)CC2)NCCOc1ccccc1OCC(F)(F)F (stereo not given)
    -3, 5522
(101) CC(F)(F)CN1CCOc2c(nn(-c3ccccc3Cl)c2-c2ccc(Cl)cc2)C1=O
    -0.63, 5409
(102) CN(c1ccccc1CNc1nc(Nc2ccc3c(c2)CC(=O)N3)ncc1C(F)(F)F)S(C)(=O)=O
    i, /

From PubChem BioAssay
